PMI inhibition: MPI inhibition at elevated mannose 6-phosphate – biochemical, fluorescence intensity, high mannose 6-phosphate, primary screen (AID 1220); hit rate 0.66% among 190,000; recombinant PMI enzyme, coupled fluorescence intensity; higher % means a stronger effect; inhibition, % at 20 µM, or IC50 in µM where a hit was titrated
T cell HTS: T cell immune modulation candidate | 2C CD8+ T cell-vesicle binding, flow cytometry; active compounds read low | calls only at 7 µM | hit rate 0.068% among 330,000;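 active means response, share of CD8 T cells binding vesicles, and their 90th percentile fluorescence all below set limits, cut at about 80% in these data, passing the limit was not always enough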
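Read-out – percent CD8+ FL2 mean versus row control · System – murine 2C transgenic CD8+ T lymphocytes · Times – 1.5 h cell–vesicle binding at 37 °C, then 20 min icy labelling · Control set – naked vesicles low, QL9 vesicles with vehicle high · Detection – cytometric PE anti-B7-1 and Alexa647 anti-CD8 signals after 1% paraformaldehyde fixation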
Autophagy HCS: autophagy modulation, high-content screen | calls only at 10 µM (by protocol) | MEF GFP-LC3 puncta imaging; test concentration mostly 10 µM | AID 463193 | hit rate 0.98% among 190,000;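 active means percentage of spot-positive cells more than 3 SD above its plate mean, without a fluorescence outlier flag or 80% toxicity; inconclusive means no clear call, values can overlap the other calls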;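 further: spot-positive cell cutoff set from DMSO-treated cells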
bCat nuc transl: alters nuclear translocation of beta-catenin in HeLa cells. immunofluorescence imaging. nuclear translocation activity, % at 5 µM. hit rate 0.3% among 190,000. AID 1665;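 active means nuclear translocation activity above 50% at 5 µM, with a well cell count of 50 or more; inconclusive means wells under 50 cells across six images, flagged as toxic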;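 further: per-cell ratio of nuclear to cytoplasmic median beta-catenin stain intensity; plate controls were DMSO negative control for no effect and GSK-3 inhibitor IX positive control for full effect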
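Test system: HeLa cells, endogenous beta-catenin; Compound: single 5 µM dose plus 0.02–20 µM confirmation series; Times: compound exposure 24 h at 37°C; Signal: fluorescence imaging of beta-catenin antibody stain plus DAPI; Read-out: % activation, nuclear-to-cytoplasmic median beta-catenin signal ratio per cell.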
PMI inhibitors: MPI enzyme activity inhibition – biochemical, fluorescence intensity, coupled assay, primary screen (AID 1209); purified PMI enzyme, coupled fluorescence intensity; higher % means a stronger effect; inhibition, % at 20 µM; hits with a dose series show IC50 in µM; hit rate 0.42% among 190,000;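 further: plate controls were DMSO vehicle for no effect and wells lacking substrate for full effect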
bCat nuc transl cell count 5 µM: recorded beside bCat nuc transl, whose call it bears; cell count; measured here: cell count, cytotoxicity flag
T cell HTS vesicle-bound %: also measured in T cell HTS; calls as there; double positive events, %; measured here: CD8+ vesicle-bound cell fraction;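 binding gate set so that unloaded-vesicle control wells show 10% double positive cells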
Autophagy HCS cell loss 18 h: recorded beside Autophagy HCS, whose call it bears; toxicity, %; measured here: cell loss, nuclei count;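 cell loss after 18 h compound exposure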
* hit, by the source's call; i = inactive; ? = inconclusive; · = no result given; & = joins results of further samples. Unless noted, no stated cut-off is given here; in the data, active means inhibition above about 50%; inactive means the rest. Some of the compounds tested, so the mix of outcomes need not match the whole.

Structure,PMI inhibition,T cell HTS,T cell HTS vesicle-bound %,Autophagy HCS,Autophagy HCS cell loss 18 h,bCat nuc transl,bCat nuc transl cell count 5 µM,PMI inhibitors
CN1CCN(C2=Nc3cc(Cl)ccc3Nc3ccccc32)CC1,-3.8%,i,16.2,i,2.5,·,·,-12.3%
CCCCNC(=S)NNC(=O)c1nn(C)c(C)c1Cl,-1.3%,i,29.7,i,-1.3,4.5,501,-0.1%
N[C@@H](Cc1cc(I)c(Oc2ccc(O)c(I)c2)c(I)c1)C(=O)O,3.4%,i,55.6&32.6,i,-53.2&4.8,1.6,530,-2.3%
O=C(Nc1ncn[nH]1)c1ccc(S(=O)(=O)N2CCOCC2)cc1,6.3%,i,22.4,i,35.3,-3.5,1094,10.0%
Cc1ccc(-n2ncc3c(NNC(=O)c4ccco4)ncnc32)c(C)c1,-1.5%,i,25.6,i,23.4,0.2,1086,-3.2%
O=C(O)COCCN1CCN(C(c2ccccc2)c2ccc(Cl)cc2)CC1 (stereo not given),-9.7%,i,26.2,i,-10.5,0.6,1201,-1.1%
c1ccc(Cn2c(CNc3nc4ccccc4n3CCN3CCCCC3)nc3ccccc32)cc1,-0.5%,i,55.3,i,-12.9,-6.3,541,1.7%
C[C@H]1C[C@@H]2[C@H]([C@@H](O)C[C@@]3(C)[C@H]2CC[C@]3(O)C(=O)CO)[C@@]2(C)C=CC(=O)C=C12,-13.0%,i,20.0,i,9.9,·,·,-19.7%
C=C(C)c1cccc(C(C)(C)NC(=O)NC(c2ccccc2)c2ccc(OC)cc2)c1 (stereo not given),10.1%,i,43.8,i,-3.4,-1.3,823,26.0%
CCCC(=O)Nc1ccc(Cl)c(-c2nc3ncccc3o2)c1,·,i,12.1,·,·,·,·,·
O=C(O)Cn1nc(C(F)(F)F)c2c1CCCCC2,6.4%,i,31.8,i,-6.2,-1.0,1146,2.7%
CC(C)NCC(O)COc1ccc(CCOCC2CC2)cc1 (stereo not given),-13.3%&3.7%,i,31.9,i,3.5,-2.6&-1.5,500&1190,-14.3%&5.0%
O=C(CSc1ncnc2ccccc12)NCc1ccc2c(c1)OCO2,-4.2%,i,45.3,i,2.3,-1.6,1111,-6.5%
CCNc1c2c3c(cccc3n(C)c1=O)C(=O)c1ccccc1-2,10.5%,i,44.3,?,·,-3.3,986,11.9%
Cc1nc2ccccc2n1S(=O)(=O)c1ccc(F)cc1,·,i,14.0,·,·,·,·,·

Structural class, the entries above with a carbonyl joined to an NH by a bond outside any ring.
Structure,PMI inhibition,T cell HTS,T cell HTS vesicle-bound %,Autophagy HCS,Autophagy HCS cell loss 18 h,bCat nuc transl,bCat nuc transl cell count 5 µM,PMI inhibitors
CCCCNC(=S)NNC(=O)c1nn(C)c(C)c1Cl,-1.3%,i,29.7,i,-1.3,4.5,501,-0.1%
O=C(Nc1ncn[nH]1)c1ccc(S(=O)(=O)N2CCOCC2)cc1,6.3%,i,22.4,i,35.3,-3.5,1094,10.0%
Cc1ccc(-n2ncc3c(NNC(=O)c4ccco4)ncnc32)c(C)c1,-1.5%,i,25.6,i,23.4,0.2,1086,-3.2%
C=C(C)c1cccc(C(C)(C)NC(=O)NC(c2ccccc2)c2ccc(OC)cc2)c1 (stereo not given),10.1%,i,43.8,i,-3.4,-1.3,823,26.0%
CCCC(=O)Nc1ccc(Cl)c(-c2nc3ncccc3o2)c1,·,i,12.1,·,·,·,·,·
O=C(CSc1ncnc2ccccc12)NCc1ccc2c(c1)OCO2,-4.2%,i,45.3,i,2.3,-1.6,1111,-6.5%

Screening data deposited in PubChem by several laboratories.
